Prx2 Sm inh – Schistosoma mansoni Prx2 inhibition. S. mansoni Prx2 activity coupled to TGR/GSH (TGR is thioredoxin glutathione reductase), NADPH fluorescence loss, qHTS; some inactives read as strong as hits. Potency, µM. 0.07% of 65,000 active. AID 448; active means full or partial inhibition curve with a strong effect at the top dose; inconclusive means weaker partial or single-point curve; inactive means no accepted curve; also: series up to 57 µM; many of its hits are not listed in these tables
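Prx2 activity was followed as the loss of NADPH fluorescence (ex 365/em 450 nm), read every 30 sec for 8 min after H2O2 start. The enzyme mix (50 nM Prx2, 25 nM TGR, GSH, NADPH; pH 7.4 phosphate buffer) was incubated with compound for 15 min at room temperature first.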
Anthrax LT inh – anthrax lethal toxin internalization inhibition; Cells, anthrax lethal toxin internalization, FRET ratio (460/530); 0.67% of 70,000 active; Potency, µM (series often up to 40 µM), for the others: at the top dose activity change, negative = inhibition, usual class: inhibitors; active = well fitted falling ratio curve with the 530 nm signal flat; inconclusive = other ratio curves, or a change in one channel alone; inactive = flat curves in the ratio and both channels; the % refers to the ratio; also: % is scaled to controls: 0 for no effect and ±100 for the full control effect; nearly all actives have a fitted effect of over 50% in size; tested in ME-180 cells; beta-lactamase reporter
Numbers without * were called inactive; ? = inconclusive; / = not tested or not shown; & = joins results of further samples; [ ] = dose if it differs, or a comment. Potency is read from the fitted curve at half-maximal effect. Only part of the results is shown (hit frequency here may not be typical).

Value order – Prx2 Sm inh | Anthrax LT inh
C=CCn1c(N)c(C(=O)N2CCN(C)CC2)sc1=S
    / | -2.4%
CCN(CC)COC(=S)S
    >57 | 10.8%[8 µM]
O=C(CSc1ncnc2c1cnn2Cc1ccccc1)Nc1ccc2c(c1)OCCO2
    >57 | 7.5%
C#CCCCO/N=C1/C[C@@H](O)[C@@H](O)[C@@H]2[C@@H]3C(=O)N(C[C@@H]4CCCO4)C(=O)[C@H]3CC[C@H]12
    / | -5.2%[1.6 µM]
O=C(Nc1nnc(-c2ccccc2Cl)o1)c1cccnc1
    >57 | -10.5%
Cc1sc2c(c1C)c(=O)n(-c1ccccc1)c1nncn21
    / | 7.0%
O=C(c1ccco1)N1CCN(C(=O)C2(S(=O)(=O)c3ccc(Cl)cc3)CC2)CC1
    >57 | 5.0%
COc1ccc(OC)c(NC(=O)c2cc3ccccc3o2)c1
    >57 | -8.6%
COc1ccc(NC(=O)c2ccc3c(c2)n(C)c(=O)n3C)cc1
    >57 | -11.3%
Cc1cc(N2CCN(c3nnnn3-c3ccccc3)CC2)n2ncnc2n1
    >57 | 4.8%

(listing goes on)
Value order – Prx2 Sm inh | Anthrax LT inh
CCOC(=O)CN(C(=O)Cn1nnc2ccccc21)C(C(=O)NCCOC)c1ccccc1C (stereo not given)
    >57 | 3.7%
CC(C)Oc1ccc(C(=O)Nc2ccc(N(C)C)cc2)cc1
    / | ?
CCOc1ccccc1-n1c(O)c(C=NCc2ccc3c(c2)OCO3)c(=O)[nH]c1=O
    >57 | 2.3%
Nc1ccc(-c2ccc(N)c(O)c2)cc1O
    / | ?
Cc1nc2c3ccccc3[nH]c(=O)n2n1
    >57 | 5.8%
c1ccc(Cc2nnc3sc(-c4ccc5c(c4)OCO5)nn23)cc1
    >57 | -9.4%
O=C(NCC(c1cccnc1)N1CCN(c2ccccc2)CC1)c1ccc2c(c1)OCO2 (stereo not given)
    >57 | 1.6%
CC1(C)CC(=O)c2cnc(NCc3ccco3)nc2C1
    >57 | -5.4%
Cn1c(=O)[nH]c(=O)c2c1nc(Br)n2CCOc1ccccc1
    >57 | 5.2%
Cc1cc(NC(=O)COc2cccc3cccnc23)no1
    >57 | -12.7%

More records:
Value order – Prx2 Sm inh | Anthrax LT inh
CCC(c1nc2ccccc2c(=O)n1-c1cccnc1)N1C(=O)c2ccccc2C1=O (stereo not given)
    >57 | 8.7%
COCC(=O)N1CCC2(CCCN(c3ccc(-c4ccccc4)cc3)C2)CC1
    >57 | -3.4%
O=C(COc1ccccc1)NCCSCc1ccco1
    >57 | -10.5%
CC1(C)OC[C@@H]2O[C@H](n3cnc4c(N)nc(Cl)nc43)[C@@H](OS(C)(=O)=O)[C@@H]2O1
    >57 | 5.8%[8 µM]
Cc1ccc(N2CC(C(=O)N3CCN(c4ccccc4)CC3)CC2=O)cc1 (stereo not given)
    >57 | 0.9%
COc1cc2c(cc1NC(=O)c1ccc3c(c1)OCO3)oc1ccccc12
    >57 | ?
N#Cc1cccc(-c2cc(-n3ccnc3)ncn2)c1
    >57 | 5.3%
CN(CC(=O)N1CCCc2c1c(=O)oc1ccc(O)cc21)Cc1ccccc1
    >57 | 3.9%
O=C(CSc1nnc(C2CCCCC2)n1-c1ccccc1)NCc1ccco1
    >57 | -18.7%
CCN(Cc1ccncc1)S(=O)(=O)c1ccc(C(C)=O)cc1
    >57 | -19.3%

Profiles, looked up by structure:
`O=C(COc1ccccc1)NCCSCc1ccco1` in the list: Prx2 Sm inh: >57; Anthrax LT inh: -10.5%
`Cc1ccc(N2CC(C(=O)N3CCN(c4ccccc4)CC3)CC2=O)cc1` (stereo not given) in the list: Prx2 Sm inh: >57; Anthrax LT inh: 0.9%

Further entries:
Value order – Prx2 Sm inh | Anthrax LT inh
CC(Sc1cccc(C(F)(F)F)c1)C(=O)NC(N)=O (stereo not given)
    >57 | -14.2%
CCOC(=O)CCCSc1nc2sc(C)c(C)c2c(=O)[nH]1
    >57 | 12.9%
O=C(Nc1ccc(Br)cc1F)c1ccncc1
    / | -18.5%
Cn1c(=O)c(-c2cc(F)cc(F)c2)nc2cnc(N3CCNCC3)nc21
    >57 | ?
COc1ccc(NC(=O)CSc2nc3ccccc3c(=O)n2-c2ccc3c(c2)OCO3)c(OC)c1
    >57 | -3.8%
O=c1c(-c2ccc(F)c(F)c2)nc2cncnc2n1-c1ccccc1
    >57 | ?
CCCCCCCCCC(=O)N[C@@H](CN1CCOCC1)[C@@H](O)c1ccccc1
    >57 | -11.1%
CC1(C)NC(=O)N(CCOc2cccc(Oc3ccccc3)c2)C1=O
    >57 | /
CCc1ccc(-c2cn(-c3nc(C)cc(C)n3)c(=N)o2)cc1
    >57 | 12.6µM*
CN(Cc1ccccc1)S(=O)(=O)c1ccc(NS(C)(=O)=O)cc1
    >57 | -12.3%

Next records
Value order – Prx2 Sm inh | Anthrax LT inh
O=c1[nH]c(C2CCCN(S(=O)(=O)c3ccccc3)C2)nc2c1nnn2Cc1ccccc1 (stereo not given)
    >57 | 12.4%
COc1ccc(Cn2c(CCC(=O)O)nc3cccnc32)cc1
    >57 | /
O=c1c(O)c(-c2ccc(O)c(O)c2)oc2cc(O)cc(O)c12
    >57&>57&>57&>25.6&>57 | ?
CN(C)c1nc(C(=O)OCCO)nc(N(C)C)n1
    >57 | -10.2%
CN(C)CCN(C)CCc1ccc(Cl)c(Cl)c1
    >57 | -20.7%
CNc1nc(C)c(C#N)c(-c2ccccc2)c1C(C)=O
    >57 | -9.7%
COc1ccc(C(=O)N2CCC3(CCN(Cc4ccccc4OC)CC3)CC2)cc1
    >57 | ?
CCn1c(CNC(=O)c2ccc3c(c2)OCO3)nnc1SCC(=O)Nc1cc(C)ccc1OC
    >57 | /
O=C1c2ccccc2C(=O)C1(O)O
    / | ?
CN(C)CCCCSC(=N)N
    >57&>57 | ?

The listing continues.
Value order – Prx2 Sm inh | Anthrax LT inh
Cc1ccc(S(=O)(=O)N(C)CCCC(=O)n2nc(C)cc2C)cc1
    >57 | 0.0%
O=C(C1CC(c2ccc(F)cc2)=NO1)N1CCCCC1 (stereo not given)
    >57 | 6.0%
CC(=O)Nc1ccc(S(=O)(=O)NC(C(=O)O)C2=CCC=CC2)cc1 (stereo not given)
    >57 | -14.6%
CCCCS(=O)(=O)/C=C\C1C2C=CC(C2)C1S(=O)(=O)CCCC (stereo not given)
    >57 | 22.0%
CCN(CCNC(=O)C1CCN(Cc2nc(-c3ccc(Cl)cc3)oc2C)CC1)c1ccccc1
    >57 | ?
Cc1nc2ccccc2c(=O)n1/N=C/c1c(O)ccc2oc3c(c12)CCCC3
    >57 | 10.8%
COc1ccc(N(C(C)C(=O)NC2CCCCCC2)S(C)(=O)=O)cc1 (stereo not given)
    >57 | 2.1%
C=Cn1ccnc1P(=S)(c1ccc(N(C)C)cc1)c1nccn1C=C
    >57 | ?
CCC(=NC1CC1)c1c(O)n(C2CCCCC2)c(=O)[nH]c1=O
    >57 | 21.1%
O=C1NCCCc2c1oc1ccc(O)cc21
    >57 | -9.8%

Following part:
Value order – Prx2 Sm inh | Anthrax LT inh
CCC(=O)NCCC(c1ccco1)c1ccccc1OC (stereo not given)
    >57 | ?
O=C(O)CCCCn1cnc2c(=S)nc[nH]c21
    >57 | -6.4%[8 µM]
COc1cc(C(C(=O)NC(C)(C)C)N(Cc2ccccc2)C(=O)c2cnccn2)cc(OC)c1OC (stereo not given)
    >57 | -2.7%
COc1nc(NC(C)(C)C)nc(Oc2ccc(=O)n(-c3ccccc3)n2)n1
    >57 | ?
COc1ccc(-c2csc(/C(C#N)=C(\O)CSc3nccn3C)n2)cc1OC
    >57 | -6.7%
Cn1c(NC(=O)c2ccco2)cc(=O)n(C)c1=O
    / | 0.7%
CCOc1cc(C(=O)O)cc(Cl)c1OCC#N
    >57 | -1.2%
OC(COc1cccc(OCC(O)CN2CCCC2)c1)CN1CCCC1 (stereo not given)
    / | ?
CCCCCn1c(CN2CCCCC2CC)nc2c1c(=O)n(C)c(=O)n2C (stereo not given)
    >57 | 26.0%
O=S(=O)(NCc1ccccc1)c1ccc2c(c1)OCCO2
    >57 | -6.3%

More entries
Value order – Prx2 Sm inh | Anthrax LT inh
COc1ccc(OC)c(C(=O)c2coc3ccc(O)c(CN4CCOCC4)c23)c1
    >57 | -20.2%
Cn1c(=O)c2c(nc(NCc3ccco3)n2CC(O)COc2ccccc2)n(C)c1=O (stereo not given)
    >57 | 14.9%
COCCn1nnnc1C(c1cc2cc(C)cc(C)c2[nH]c1=O)N1CCN(c2ccccc2F)CC1 (stereo not given)
    >57 | -2.6%
COc1ccc(C#CC2C=CC(OC(C)=O)C(COC(C)=O)O2)cc1 (stereo not given)
    / | -9.8%&-6.9%[8 µM]
CCOc1cc(C)nc(NCCc2ccc(OC)c(OC)c2)n1
    >57 | 11.7%
COc1ccc(/C(O)=C2/C(=O)C(=O)N(CCN3CCOCC3)C2c2ccc(C)cc2)cc1 (stereo not given)
    / | -5.7%
CCCn1c(N)c(C(=O)CN2CCN(S(=O)(=O)c3cccs3)CC2)c(=O)[nH]c1=O
    >57 | 8.2%
N#CC(Cl)(Cl)Cl
    / | 5.4%
Cc1ccc(Cn2c(C)nc3c(c2=O)c2nc4ccccc4nc2n3Cc2ccco2)cc1
    >57 | /
CCOc1ccc(C(=O)NCc2cccnc2)cc1
    / | ?

The listing continues:
Value order – Prx2 Sm inh | Anthrax LT inh
Cc1ccccc1-c1nc(CN2CCCC(C(=O)NCCCN3CCOCC3)C2)c(C)o1 (stereo not given)
    >57 | ?
CN(C)CC(C)(C)CNC(=O)C1CCN(Cc2ccccc2O)CC1
    >57 | ?
C=CC(=O)OCCCC
    / | -2.3%
O=C(c1cccc(Cl)c1)N1CCN(C(=O)c2ccco2)CC1
    / | 4.1%
CN1[C@H](CC(=O)c2ccccc2)CCC[C@H]1C[C@@H](O)c1ccccc1
    >57 | ?
O=C(Nc1cccnc1)c1cnn2c(C(F)F)cc(C3CC3)nc12
    >57 | 11.0%
COc1ccc(CC(=O)n2nc(-c3cccnc3)nc2N)cc1
    >57 | ?
CC(C)=CCC12CN3CCN(CC(C3)C1=O)C2
    >57 | ?
CCOC(=O)c1nnn(-c2nonc2N)c1CN(CC)CC
    >57 | 12.3%
C=C(C)CN(CC#N)CC(=C)C
    >57 | -11.3%[8 µM]

The listing continues:
Value order – Prx2 Sm inh | Anthrax LT inh
CC(O)CNc1ncnc2nc[nH]c12 (stereo not given)
    >57 | -2.4%
O=C(O)Cc1ccc(NC(=O)c2cccs2)cc1
    >57 | -2.9%
O=C(OC[C@@H](O)CO)c1ccccc1Nc1ccnc2cc(Cl)ccc12
    >57 | -5.2%[3.58 µM]
CC(C)NC(=O)N1CCC2(CC1)CCN(C(=O)Oc1ccccc1)CC2
    >57 | 7.7%
CCOC(=O)Cc1csc(NC(=O)c2cccc(N3C(=O)CCC3=O)c2)n1
    >57 | -5.7%
CCOC(=O)N1CCN(C(=O)CN(c2cccc(C)c2)S(=O)(=O)c2ccc(C)cc2)CC1
    >57 | 21.4%
COC(=O)[C@@H]1C[C@H]1[C@@H](NS(=O)(=O)c1ccc(-c2ccccc2)cc1)c1ccccc1
    >57 | ?
CCOC(=O)c1c(-c2ccc(C)o2)csc1NC(=O)CSc1nnnn1-c1ccccc1
    >57 | ?
O=C(CSc1nnc(Cn2c(=O)sc3ccccc32)n1-c1ccccc1)NCc1ccco1
    >57 | -6.3%
CCn1c(SCC(=O)Nc2nc(C)c(C(=O)OC)s2)nnc1C(C)C
    >57 | -0.6%

Continued:
Value order – Prx2 Sm inh | Anthrax LT inh
CCCCN(C(=O)NC(=O)Nc1cc(C)ccc1C)S(C)(=O)=O
    >57 | -17.3%
CCOc1ccc(CCN2C(=O)CCC2(C)C(=O)NC(C)CC)cc1OCC (stereo not given)
    >57 | 6.5%
O=C(CSc1ncn(-c2ccccc2)n1)Nc1ccc(Br)cn1
    >57 | ?
COc1ccc(C)c(S(=O)(=O)Nc2ccc(OCC(=O)O)cc2)c1
    >57 | 0.6%
CCOC(=O)N1CCN(CC(O)COC2CC(C)CC(C)(C)C2)CC1 (stereo not given)
    >57 | -0.7%
N#CCCn1c(=O)c(-c2cccc(C#N)c2)nc2cnc(N3CCOCC3)nc21
    >57 | ?
CC(O)C(O)C(O)C(O)C1NCCS1 (stereo not given)
    >57 | -1.1%
Cc1cccn2cc(-c3ccc(F)cc3)nc12
    / | -4.8%
N#C/C(=C(/O)COC(=O)CCc1ccc(S(=O)(=O)N2CCOCC2)cc1)c1nc2ccccc2[nH]1
    >57 | ?
COc1cc2c(cc1OC)-c1cc(NC3CC3)nc(=O)n1CC2
    >57 | -0.6%

(list continues)
Value order – Prx2 Sm inh | Anthrax LT inh
CN(Cc1ccccc1)Cc1nc2c([nH]1)c(=O)[nH]c(=O)n2C
    >57 | ?
CC(C)N(C(=O)Cn1c(SCC(=O)N2CCN(c3ccccc3)CC2)nc2ccccc21)C(C)C
    >57 | 3.2%
COc1ccccc1[N+](=O)[O-]
    / | -13.3%
CNc1ncncc1-c1ccccc1C(F)(F)F
    >57 | ?
Nn1c(SCc2ccccc2)nnc1-c1ccco1
    >57 | -8.5%
CC(=O)N(c1cccc(C)c1)C1SC(=O)N(c2ccccc2)C1=O (stereo not given)
    >57 | 24.9%
CN(Cc1nc(-c2ccccn2)no1)S(=O)(=O)c1ccc(Cl)cc1
    >57 | 2.9%
Cc1ccc(NC(=O)CCNS(=O)(=O)c2cccc3nonc23)cc1
    >57 | -8.8%
